Source: PubChem BioAssay (National Center for Advancing Translational Sciences (NCATS))
VDR inh: inhibitors of human vitamin D receptor | P11473 | VDR-SRC2-3 peptide fluorescence polarization, 2 h | Potency, µM, for the others: max response, negative = inhibition, hits mostly inhibitors | 0.93% of 400,000 active; active = well fitted inhibition curve with a large enough effect; also: series mostly up to about 120 µM
Target sequence (P11473 whole entry, looked up): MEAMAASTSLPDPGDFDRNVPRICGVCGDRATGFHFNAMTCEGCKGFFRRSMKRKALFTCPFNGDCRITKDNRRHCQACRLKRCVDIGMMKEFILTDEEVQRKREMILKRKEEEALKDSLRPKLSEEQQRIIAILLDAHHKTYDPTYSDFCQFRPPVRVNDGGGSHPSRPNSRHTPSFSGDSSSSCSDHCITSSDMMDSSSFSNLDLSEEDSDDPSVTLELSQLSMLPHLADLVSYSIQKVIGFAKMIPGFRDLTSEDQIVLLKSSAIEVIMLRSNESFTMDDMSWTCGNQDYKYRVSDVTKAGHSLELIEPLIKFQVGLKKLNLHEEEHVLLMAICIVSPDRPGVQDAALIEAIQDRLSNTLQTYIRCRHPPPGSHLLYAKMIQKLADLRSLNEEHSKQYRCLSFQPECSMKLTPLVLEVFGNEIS
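FP read-out; VDR + SRC2-3 coactivator peptide; 23 nl compound by pintool; 2 h RT incubation; reagents held at 4 deg C, protected from light.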
An asterisk follows results filed as active; & = joins results of further samples. % is scaled to controls: 0 for no effect and ±100 for the full control effect; potency is read from the fitted curve at half-maximal effect.

What do the screens show for `O=C(COc1ccccc1)Nc1ccccc1OCc1cc(=O)n2ccccc2n1`?
VDR inh: 10%

What do the screens show for `Cc1cc(N2CCN(C)CC2)nc2ccc(NC(=S)N3CCN(c4cccc(Cl)c4)CC3)cc12`?
VDR inh: -6%

Results for CN(C)c1ccc(C=NCCC2(O)CCOC(C)(C)C2)cc1 (stereo not drawn) ?
VDR inh: 2%

What do the screens show for `CN(C(=O)CS(=O)(=O)c1cccc(Cl)c1)c1ccccc1`?
VDR inh: -2%

What do the screens show for `Cn1c(=O)c2c(nc(NCc3ccccc3)n2CCCc2ccccc2)n(C)c1=O`?
VDR inh: -3%

Results for Cc1cccc(C(=O)N[C@@H]2c3ccccc3C[C@@H]2O)n1 ?
VDR inh: 0%

What do the screens show for `C/C(=N\NC(=O)c1cccc([N+](=O)[O-])c1)c1cccnc1`?
VDR inh: 17%

Results for CCn1cc(/C=C/c2cc[n+](C)cc2)c2ccccc21 ?
VDR inh: -2%

How did Cc1ccc(-c2[nH]c(-c3ccc(C(=O)O)cc3)nc2-c2ccccc2)cc1 do in these assays?
VDR inh: -9%

What do the screens show for `Cc1cc(-c2nnc3n2CCCCC3)c(C)n1-c1ccccc1`?
VDR inh: 0%

What do the screens show for `COc1ccc(Cl)cc1NC(=O)COC(=O)CNC(=O)c1ccc([N+](=O)[O-])c(C)c1`?
VDR inh: 14%

Results for COc1ccc(OC)c(-c2csc(-c3cccs3)n2)c1 ?
VDR inh: -12%

How did CCCn1c(=O)c(C(=O)Nc2ccccc2C)c(O)c2ccccc21 do in these assays?
VDR inh: -5%

What do the screens show for `CCCc1ccc(C2Sc3ccccc3NC3=C2C(=O)c2ccccc23)cc1` (stereo not drawn)?
VDR inh: -10%

Results for COc1cc(OC)cc(C(=O)NCC(=O)N2CCN(Cc3ccccc3)CC2)c1 ?
VDR inh: 12%

How did Cc1cc(Cl)ccc1OCc1nnc2n1CCCCC2 do in these assays?
VDR inh: 1%

How did COc1ccc(-n2c(C)c(C)c3c(NCCCO)ncnc32)cc1 do in these assays?
VDR inh: -9%

Results for CCOc1ccccc1C(=O)NCC(=O)NCc1ccc(S(=O)(=O)N2CCOCC2)cc1 ?
VDR inh: -1%

Results for O=C(Nc1ccc(-c2csc(Nc3cccc(C(F)(F)F)c3)n2)cc1)c1cc([N+](=O)[O-])cc(C(F)(F)F)c1 ?
VDR inh: 8%

Results for COc1ccc(CCn2c(N)c(S(=O)(=O)c3cccs3)c3nc4ccccc4nc32)cc1OC ?
VDR inh: 1%

Results for COCCNc1nc(-c2ccccc2C)nc2ccccc12 ?
VDR inh: -3%

What do the screens show for `O=C(Nc1cccc(Cl)c1N1CCCC1)c1ccc([N+](=O)[O-])o1`?
VDR inh: -12%

How did CCN(CC)S(=O)(=O)c1ccc(N2CCCC2)c(NC(=O)C2=COCCO2)c1 do in these assays?
VDR inh: 5%

How did CCOCCCNC(=O)C1CCN(C(=O)Nc2ccc(C)cc2)CC1 do in these assays?
VDR inh: -4%

What do the screens show for `COc1ccc(OC)c(C2c3c(-c4ccc(Br)cc4)n[nH]c3C(=O)N2c2ccc(Cl)cc2)c1` (stereo not drawn)?
VDR inh: -11%

What do the screens show for `O=C(CN1C(=O)c2ccccc2C1=O)Nc1ccc(N2CCOCC2)cc1`?
VDR inh: 6%

What do the screens show for `CC(OC(=O)c1cc[n+]([O-])cc1)C(=O)Nc1ccc(C(N)=O)cc1` (stereo not drawn)?
VDR inh: 0%

Results for CC(C)N(C(=O)C(F)(F)F)C(C(=O)NC1CCCCC1)c1ccncc1 (stereo not drawn) ?
VDR inh: 5%

What do the screens show for `c1nc(N2CCN(Cc3ccc4c(c3)OCO4)CC2)c2[nH]cnc2n1`?
VDR inh: -12%

How did CCCCN(C(=O)c1ccc(S(=O)(=O)N2CCCC2)cc1)C1CCS(=O)(=O)C1 (stereo not drawn) do in these assays?
VDR inh: 12%

How did CC(=O)NCCc1nc2ccccc2n1CCCCOc1ccc(Cl)cc1 do in these assays?
VDR inh: 15%

What do the screens show for `COc1ccccc1CNCC(=O)Nc1ccc(C(F)(F)F)cc1`?
VDR inh: 8%

Results for CCOC(=O)C1CCCN(C(=O)C2CCN(S(=O)(=O)c3cccs3)CC2)C1 (stereo not drawn) ?
VDR inh: 0%

How did COc1ccccc1-c1cn[nH]c1-c1ccc(OCc2ccccc2)cc1O do in these assays?
VDR inh: -3%

What do the screens show for `O=C(c1ccc(F)c(S(=O)(=O)N2CCOCC2)c1)N(c1ccccc1)c1ccccn1`?
VDR inh: -1%

How did CC(C)NS(=O)(=O)c1ccc(CCC(=O)N2CCC(C(N)=O)CC2)cc1 do in these assays?
VDR inh: 15%

Results for Cc1cccc(NC(=S)N2CCN(c3ccc(F)cc3)CC2)c1 ?
VDR inh: 13%

Results for Cc1ccc(CCNC(=O)CN2N=C(c3ccc(C)cc3)CCC2=O)cc1 ?
VDR inh: 7%

What do the screens show for `CCOC(=O)c1c(NC(=O)CSc2nc3ccccc3c(=O)n2-c2ccccc2)sc(C(C)=O)c1C`?
VDR inh: 24%

What do the screens show for `O=c1oc2c(CN3CCOCC3)c(O)ccc2cc1-c1ccccc1`?
VDR inh: 6%

Results for Cc1cc(C(=O)Nc2ccc(S(=O)(=O)Nc3onc(C)c3C)cc2)cs1 ?
VDR inh: -5%

Results for CCN(CC)S(=O)(=O)c1ccc2c(c1)nc(CCC(=O)Nc1cccc(C(F)(F)F)c1)n2CC ?
VDR inh: 2%

What do the screens show for `O=C1CSC(c2ccccc2F)N1c1ccccc1` (stereo not drawn)?
VDR inh: 6%

How did O=C(NN1C(=O)C2C(C1=O)C1C=CC2C12CC2)c1cccnc1 (stereo not drawn) do in these assays?
VDR inh: -16%

How did CC(C)C(=O)Nc1nc(-c2ccccc2)ns1 do in these assays?
VDR inh: 25%

How did Cc1ccc2c(c1)S(=O)(=O)c1ccc3ccccc3c1N2 do in these assays?
VDR inh: -14%

What do the screens show for `CN(C)S(=O)(=O)c1ccc(N2CCCC2)c(C(=O)NCc2ccc(Cl)cc2)c1`?
VDR inh: -11%

What do the screens show for `CCOC(=O)c1ccc(NC(=S)N2CCN(C(=O)C3CCCO3)CC2)cc1` (stereo not drawn)?
VDR inh: -2%

Results for COC(=O)/C=C/CC(C)OS(N)(=O)=O (stereo not drawn) ?
VDR inh: -11%

Results for Cc1ccc(NC(=O)c2ccc(Cl)c(NC(=O)c3cccs3)c2)cc1 ?
VDR inh: 9%

What do the screens show for `COc1ccc(CCN2C(=O)C3C4CC(C5C(C(=O)N/N=C\c6ccc(Cl)cc6)=NOC45)C3C2=O)cc1OC` (stereo not drawn)?
VDR inh: 9%

What do the screens show for `C=CCOC(=O)C1=C[C@@H](c2ccc(Br)cc2)C[C@@H](OCc2ccc(CO)cc2)O1`?
VDR inh: -7%

What do the screens show for `CCOC(=O)C1=C(COc2ccc(F)cc2Cl)NC(=O)NC1c1cc(C)ccc1C` (stereo not drawn)?
VDR inh: -5%

Results for CCn1c(SCC(=O)NCc2cccs2)nnc1-c1ccco1 ?
VDR inh: -7%

Results for CCN(CC)C(=O)CSc1nc(O)c(Cc2ccccc2)c(=O)n1-c1ccccc1C ?
VDR inh: 9%

What do the screens show for `CCS(=O)(=O)c1nc(S(=O)(=O)c2ccc(Cl)cc2)c(NCCCN2CCOCC2)s1`?
VDR inh: 7%

Results for CC(C)CCNC(=O)C(c1cccnc1)N(CCc1ccccc1)C(=O)Cn1nnc2ccccc21 (stereo not drawn) ?
VDR inh: -4%

How did O=C(OCC1COc2ccccc2O1)c1c(F)cccc1F (stereo not drawn) do in these assays?
VDR inh: -17%

Results for CCC(C)[C@H](NC(=O)[C@@H]1Cc2c([nH]c3ccccc23)C2c3ccccc3C(=O)N21)C(=O)NCC1CCCO1 (stereo partly drawn) ?
VDR inh: -3%

What do the screens show for `CC(=O)c1cc(C#N)c(SCc2ccc(F)cc2)nc1C`?
VDR inh: 9%

How did CCOc1ccccc1-n1nnnc1SCC(=O)Nc1cc2oc3ccccc3c2cc1OC do in these assays?
VDR inh: 16%

What do the screens show for `O=C1NCCN1CCNS(=O)(=O)c1ccc2ccccc2c1`?
VDR inh: -7%

What do the screens show for `CC(C)C(=O)N1CCN(c2ccc(NC(=O)c3ccc([N+](=O)[O-])o3)cc2Cl)CC1`?
VDR inh: -11%

What do the screens show for `COC(=O)c1nn(C23CC4CC(CC(C4)C2)C3)c2c1C(=O)N(c1ccc(F)cc1)C2=O`?
VDR inh: 1%

How did COc1cc(OC)nc(/N=C/NO)n1 do in these assays?
VDR inh: -11%

Results for COc1ccc(C(=O)NNC(=O)c2cc3cccc(OC)c3oc2=O)cc1 ?
VDR inh: -20%

How did COc1ccc(C(=O)NC(=S)Nc2ccc(N3CCOCC3)c(Cl)c2)cc1[N+](=O)[O-] do in these assays?
VDR inh: 15%

Results for COc1ccc(CN(C(=O)CN2C(=O)c3ccccc3S2(=O)=O)C(C(=O)NCC2CCCO2)c2ccco2)cc1 (stereo not drawn) ?
VDR inh: 10%

Results for COc1ccc(C(=O)n2nc(-c3cccnc3)nc2NCc2ccccc2)cc1OC ?
VDR inh: 12%

What do the screens show for `NS(=O)(=O)c1ccc(CCNC(=O)c2ccc3c(c2)N(Cc2ccccc2)CCS3)cc1`?
VDR inh: -12%

Results for CCOC(=O)c1ccc2nc(C)cc(Nc3cccc(C(=O)O)c3)c2c1 ?
VDR inh: -8%

What do the screens show for `O=C(Nc1ccc2nc(SCC(=O)N3CCCc4ccccc43)sc2c1)c1cccc(Cl)c1`?
VDR inh: 2%

Results for COCCn1c(=O)cnc2cnc(Oc3ccc(OC)cc3)nc21 ?
VDR inh: -3%

Results for COc1ccc(CNc2ccc(Cl)cc2)cc1Cn1ccnc1 ?
VDR inh: 3%

What do the screens show for `N/C(=N\S(=O)(=O)c1ccc(Cl)s1)c1ccccc1`?
VDR inh: -17%

Results for O=[N+]([O-])c1cccc(CNc2ccc3c(c2)CCC3)c1 ?
VDR inh: -18%

What do the screens show for `CCOC(=O)COc1ccc(C)cc1-c1ccno1`?
VDR inh: 2%

How did O=C(NCc1cccs1)C(=O)NCC(c1ccco1)N1CCN(c2ccccc2)CC1 (stereo not drawn) do in these assays?
VDR inh: -13%

How did O=C(CSc1ccccc1)OCC(=O)N1CCN(C(=O)c2ccco2)CC1 do in these assays?
VDR inh: 7%

What do the screens show for `Cc1ccsc1C(C(=O)NC1CCCCC1)N(C(=O)c1csnn1)C1CC1` (stereo not drawn)?
VDR inh: -9%

How did CCCCCC(=O)N1CCCCC1 do in these assays?
VDR inh: 9%

Results for CC(=O)Nc1cccc(C(=O)OC(C)C(=O)NC(=O)NC2CCCCC2)c1 (stereo not drawn) ?
VDR inh: 1%

What do the screens show for `CCc1nc(Nc2ccc3c(c2)OCCO3)c2oc3ccccc3c2n1`?
VDR inh: 2%

How did COC(=O)c1cc(S(=O)(=O)NCCc2ccc(C)cc2)c[nH]1 do in these assays?
VDR inh: -18%

Results for COCCCN(C(C)=O)c1nc(-c2ccccc2)cs1 ?
VDR inh: 3%

Results for CC(=O)Nc1ccc(S(=O)(=O)Nc2cccc(S(=O)(=O)N(C)c3ccccc3)c2)cc1 ?
VDR inh: -7%

What do the screens show for `CCOC(=O)c1[nH]c(C)c(CCC(=O)NCc2ccccc2C)c1C`?
VDR inh: 6%

Results for COc1ccc(C2=CC(=O)C[C@H](c3ccc(F)cc3)C2)c(F)c1F ?
VDR inh: 7%

How did CN(C(=O)c1ccc(N2CCCCC2)c([N+](=O)[O-])c1)C1(C)CCS(=O)(=O)C1 (stereo not drawn) do in these assays?
VDR inh: 3%

How did COc1cccc2c(=O)c3ccoc3n(C)c12 do in these assays?
VDR inh: -18%&-6%

What do the screens show for `Cn1cccc1C(=O)NNC(=O)COc1ccc(C#N)cc1`?
VDR inh: -15%

What do the screens show for `Cc1ccccc1Cn1c(-c2cncs2)nc2ccccc21`?
VDR inh: 5%

Results for CN1CCN(c2ccccc2NC(=O)c2ccc(Br)o2)CC1 ?
VDR inh: -8%

How did CCOc1ccccc1NS(=O)(=O)c1ccc2c(c1)oc(=O)n2C do in these assays?
VDR inh: -9%

Results for Cc1cc(=O)oc2cc(OCC#N)ccc12 ?
VDR inh: 17%

Results for CN(CC(=O)Nc1ccc(Cl)c(C(F)(F)F)c1)C(=O)CCNC(=O)c1ccco1 ?
VDR inh: 6%

What do the screens show for `N#CC(OC(=O)c1ccccc1)c1cccc([N+](=O)[O-])c1` (stereo not drawn)?
VDR inh: -27%

Results for CN1C(=O)c2ccccc2Sc2ccc(NC(=O)N3CCOCC3)cc21 ?
VDR inh: 11%

How did O=C(Nc1ccc(Cl)cc1Cl)c1n[nH]c(Cn2cncn2)n1 do in these assays?
VDR inh: -2%

12 neighbouring entries already listed, quoted:
Results for CC(C)N(C(=O)C(F)(F)F)C(C(=O)NC1CCCCC1)c1ccncc1 (stereo not drawn) ?
VDR inh: 5%

What do the screens show for `c1nc(N2CCN(Cc3ccc4c(c3)OCO4)CC2)c2[nH]cnc2n1`?
VDR inh: -12%

How did CCCCN(C(=O)c1ccc(S(=O)(=O)N2CCCC2)cc1)C1CCS(=O)(=O)C1 (stereo not drawn) do in these assays?
VDR inh: 12%

How did CC(=O)NCCc1nc2ccccc2n1CCCCOc1ccc(Cl)cc1 do in these assays?
VDR inh: 15%

What do the screens show for `COc1ccccc1CNCC(=O)Nc1ccc(C(F)(F)F)cc1`?
VDR inh: 8%

Results for CCOC(=O)C1CCCN(C(=O)C2CCN(S(=O)(=O)c3cccs3)CC2)C1 (stereo not drawn) ?
VDR inh: 0%

How did COc1ccccc1-c1cn[nH]c1-c1ccc(OCc2ccccc2)cc1O do in these assays?
VDR inh: -3%

What do the screens show for `O=C(c1ccc(F)c(S(=O)(=O)N2CCOCC2)c1)N(c1ccccc1)c1ccccn1`?
VDR inh: -1%

How did CC(C)NS(=O)(=O)c1ccc(CCC(=O)N2CCC(C(N)=O)CC2)cc1 do in these assays?
VDR inh: 15%

Results for Cc1cccc(NC(=S)N2CCN(c3ccc(F)cc3)CC2)c1 ?
VDR inh: 13%

Results for Cc1ccc(CCNC(=O)CN2N=C(c3ccc(C)cc3)CCC2=O)cc1 ?
VDR inh: 7%

What do the screens show for `CCOC(=O)c1c(NC(=O)CSc2nc3ccccc3c(=O)n2-c2ccccc2)sc(C(C)=O)c1C`?
VDR inh: 24%

A portion of the library; count on the stated rates, not on these rows.
